Bioassay records deposited in PubChem BioAssay by several laboratories.
Vif TR-FRET: inhibitors of Vif binding to APOBEC3G peptide, primary screen, biochemical, TR-FRET, GST-Vif 1-94, biotin-A3G peptide, dose response retest (AID 1117319) | TR-FRET GST-Vif / biotin-A3G peptide binding; higher % means a stronger effect; test concentration not given here; strong numbers were not always called active | 260,000 tested, 0.57% active | inhibition, %, or IC50 in µM where a hit was titrated;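 active means above the screen mean plus three standard deviations and confirmed in dose response; inconclusive means results disagree or hit not tested in dose response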;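 further: Vif residues 1-94 fused to GST binding biotinylated APOBEC3G peptide 110-148; 0% = full assay without inhibitor and 100% = GST in place of GST-Vif; retest series ran down from 100 µM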
rRNA inh HTS: inhibits bacterial ribosomal RNA function over humanized ribosomes. E. coli WT GFP vs humanized-ribosome RFP mutants, fluorescence, 24 h; hits give low values; DMSO median 0, no signal -100. GFP signal change (wild-type ribosome), % (concentration not given with the values). 350,000 tested, 1.6% active. AID 720706;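 active means significant combined selectivity score with lowered wild-type GFP, culture density cut under 30%, mutant RFP and density less affected; inactive means any of these conditions unmet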; further: one replicate is shown; some compounds called inactive have numbers as strong as hits
T cruzi inh: blocks replication of Trypanosoma cruzi. T. cruzi beta-gal in NIH3T3, luminescence, 90 h. inhibition, % (test concentration not listed). 300,000 tested, 1.4% active;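 active means mean inhibition across valid replicates above about 55%, limit read from the data; inconclusive means mean below that limit but half or more replicates reach it; inactive means mean below it, under half of replicates reach it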;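 further: signal also drops with host cell toxicity which is not excluded here; 0% = plate median of DMSO wells and 100% = zero luminescence signal; higher percent means less beta-gal luminescence so fewer parasites; stock transfer was 50 nL into about 50 µL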
AF4-AF9 inh: inhibitors of human MLL-AF4/AF9 interaction; 350,000 tested, 0.47% active; inhibition, % at 10 µM; AID 651704; AlphaScreen, biotin-AF4 peptide binding to FLAG-AF9; P42568;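 active means every replicate reaching a set inhibition limit, whatever the replicate mean, cut at about 25% in these data; inconclusive means mean inhibition reaches that limit but some replicates miss it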;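 further: 0% = plate neutral control median and 100% = total signal loss; the record names both 10 and 1 µM as test concentration; the first replicate is given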
Target sequence (P42568 whole entry, looked up): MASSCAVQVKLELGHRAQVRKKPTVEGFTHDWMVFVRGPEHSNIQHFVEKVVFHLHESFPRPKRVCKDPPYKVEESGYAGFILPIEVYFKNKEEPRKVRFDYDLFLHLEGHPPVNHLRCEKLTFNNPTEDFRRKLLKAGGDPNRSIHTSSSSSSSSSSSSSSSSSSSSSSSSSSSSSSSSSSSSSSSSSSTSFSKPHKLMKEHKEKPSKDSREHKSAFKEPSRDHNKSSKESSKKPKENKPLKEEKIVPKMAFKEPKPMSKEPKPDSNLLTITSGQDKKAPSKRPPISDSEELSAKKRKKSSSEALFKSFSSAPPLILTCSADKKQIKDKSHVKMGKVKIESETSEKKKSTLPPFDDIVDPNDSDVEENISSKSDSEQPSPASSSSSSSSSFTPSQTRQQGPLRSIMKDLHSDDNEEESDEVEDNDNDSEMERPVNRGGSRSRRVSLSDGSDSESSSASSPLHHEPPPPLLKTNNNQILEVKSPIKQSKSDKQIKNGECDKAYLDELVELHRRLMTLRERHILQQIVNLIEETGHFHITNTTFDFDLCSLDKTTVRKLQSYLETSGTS
Beta cell apopt: blocks beta cell apoptosis; 300,000 tested, 0.8% active; INS-1E cytokine-induced death, ATP luminescence, 48 h; percent of positive-control rescue, neutral wells zero; protection from apoptosis, % (no concentration beside the values); AID 435005;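 active means all replicates at 75% or more, or half of them and the mean; inconclusive means half reach 75% but not the mean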;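 further: 0% = cytokine-treated negative control wells and 100% = positive control rescue; higher means more ATP so stronger rescue from cytokine killing; wells of about 40 µL received 100 nL stock; the first replicate is given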
Calb FLC: affects C. albicans growth with fluconazole | C. albicans CaCi-2 (fluconazole-resistant clinical isolate) + fluconazole, Alamar Blue growth, 48 h | growth inhibition, % (test concentration not listed) | 300,000 tested, 0.57% active | AID 1979;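 active means most replicates above 75%; inconclusive means exactly half above 75%; inactive means most below 75%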;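 further: all wells also contain fluconazole at 8 µg/ml as a sub-toxic cotreatment; 0% = median of DMSO wells and 100% = median of geldanamycin control wells; wells of about 8 µL received 7.5 nL stock; the first replicate is given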
RanGTP-Impb inh: disruptors of Ran-importin-beta complex formation – biochemical, FRET, CFP-Ran, YFP-importin-beta, homogeneous, primary screen | cell-free CFP-Ran/YFP-importin-beta FRET ratio | inhibition, % (test concentration not listed) | 300,000 tested, 1.1% active | AID 2216;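 active means most replicates above 15%; inconclusive means exactly half above 15%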;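 further: 0% = DMSO wells and 100% = Ran loaded with GDP instead of GTP; wells of about 40 µL received 100 nL stock; the first replicate is given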
A1 inh: inhibitors of the anti-apoptotic protein A1, read as caspase activation; MEF A1-2A-BIM cells, Caspase-Glo 3/7 luminescence, 3 h; percent of clofoctol response, vehicle zero; caspase activation, % (concentration not given with the values); 330,000 tested, 0.066% active; AID 2462;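 active means over half of replicate activation scores above 10%, or exactly half above 10 with the replicate mean above 10; inconclusive means replicate mean below 10 yet half the replicates above 10; inactive means over half of replicates below 10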;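 further: wells of about 30 µL received 50 nL stock; many hits fall short of the cut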
rRNA inh HTS OD600: recorded beside rRNA inh HTS, whose call it bears; OD600 change, %; measured here: OD600 growth;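 optical density of the mix in the first replicate; 0 = DMSO median and -100 = no signal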
rRNA inh HTS RFP: further read-out of rRNA inh HTS, marked with its call; RFP signal change, %; measured here: RFP humanized mutant strains;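 first replicate; 0 = DMSO median and -100 = no signal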
The depositor's hits bear a star; u = inconclusive; x = no result given. Only part of the results is shown; the hit share may differ from the screen's.

SMILES	Vif TR-FRET	rRNA inh HTS	rRNA inh HTS OD600	rRNA inh HTS RFP	T cruzi inh	AF4-AF9 inh	Beta cell apopt	Calb FLC	RanGTP-Impb inh	A1 inh
CC(=O)Nc1ccc(C(=O)COC(=O)Cc2ccsc2)c(F)c1	5.0%	-14.7	-8.8	3.9	x	-5.7	-4.4	x	x	-2.8
COc1ccccc1CNC(=O)c1ccccc1N(C)S(C)(=O)=O	-0.5%	9.7	7.4	3.2	3.2	3.3	-0.7	24.3	4.2	1.4
CCOC(=O)CC1C(=O)NCCN1Cc1ccc(OC)c(OC)c1 (stereo unspecified)	1.0%	16.5	-0.2	1.6	-28.6	-1.2	-10.8	-9.9	-0.5	-0.2
CN(c1ccccc1)c1cc(=O)[nH]c(=O)[nH]1	1.8%	4.6	6.7	-2.4	-8.3	1.0	-3.7	2.3	-49.3	-0.2
Cc1ccc(NC(=O)CSc2nncn2-c2ccccn2)cc1Cl	5.0%	4.3	8.0	-1.6	1.9	3.3	-3.3	-1.1	2.8	-0.9
CC(=O)N1CCN(c2ccc(NC(=O)c3ccc([N+](=O)[O-])cc3Cl)cc2)CC1	x	5.2	9.5	1.1	5.8	8.1	0.6	1.2	0.5	1.4
C=CCSc1nnc(-c2cc3c(s2)-c2ccccc2CC3)o1	0.9%	x	x	x	24.1	x	2.4	-1.4	8.0	0.4
Cc1cc(C)c(-c2c(O)c3ccccc3n(C)c2=O)c(C)c1	x	-9.1	5.4	2.0	-3.1	0.6	-6.7	-4.0	-1.1	-0.1
FC(F)(F)c1ccccc1-n1c(-c2ccco2)n[nH]c1=S	-3.8%	2.8	5.4	-2.4	-7.6	-5.0	-2.6	2.9	5.4	0.9
COc1ccc(/C=C2\SC(=S)N(CC(=O)NC3C=CS(=O)(=O)C3)C2=O)cc1 (stereo unspecified)	-2.1%	5.2	12.8	-0.3	-11.7	1.4	x	-5.5	2.6	-1.1
O=c1[nH]c2ccccc2n2c(C(F)(F)F)nnc12	-5.3%	9.3	6.3	1.3	-26.0	-0.1	-2.5	-12.7	4.6	0.9
COc1cccc(OCCc2c(C)n[nH]c2C)c1	6.8%	x	x	x	-11.6	x	x	2.8	2.9	-0.6
Cc1ccc(Nc2oc(C)nc2C#N)cc1	0.2%	x	x	x	6.2	x	x	-11.0	-3.6	-1.8
O=C(c1ccc2nc(Cc3cccc(Cl)c3)oc2c1)N1CCC[C@H]1CO	x	1.7	-0.5	-1.6	3.6	-3.8	x	-4.7	1.6	x
O=C(CCS(=O)(=O)c1ccccc1)Nc1cccc2c1C(=O)NC2=O	-12.6%	14.0	5.9	0.2	-2.6	-0.8	-3.2	-6.3	-2.5	0.0
O=C(COC(=O)Cc1ccc(-c2ccccc2)cc1)NCc1ccccc1	-4.6%	4.3	-2.9	2.8	-4.5	-0.5	-1.2	8.3	0.4	-0.5
COc1ccc(-c2ccc(CCC(=O)O)n2CC(C)C)cc1	15.6%	x	x	x	-26.7	x	-3.7	32.0	2.4	-0.5
O=[N+]([O-])c1ccc(-n2nncc2-c2ccc(Cl)cc2)cc1	4.9%	-16.1	-18.6	1.5	19.7	11.7	7.3	4.6	6.8	-0.6
CC(=O)c1cccc(NC(=O)C(NC(C)C)c2ccccc2)c1 (stereo unspecified)	-14.8%	5.4	1.5	-0.5	-13.4	0.2	-2.3	-1.6	-1.5	0.3
CC1=NN(C(=O)Cc2ccccc2)C(O)(c2cccnc2)C1 (stereo unspecified)	-2.5%	x	x	x	-8.6	x	-4.6	-1.0	7.1	0.0
CSc1ncccc1C(=O)OCc1cccc([N+](=O)[O-])c1	u	20.4	13.7	4.1	-2.1	0.6	-6.0	-1.9	-0.8	0.8
Cc1c(CC(=O)O)c(=O)oc2cc3c(cc12)CCC(C)(C)O3	-10.8%	3.8	0.7	-4.4	-8.2	-35.0	-0.4	-9.4	0.2	-0.1
N#Cc1ccc(OCC(O)CN2CCN(CC(O)COc3ccc(C#N)cc3)CC2)cc1 (stereo unspecified)	x	2.6	3.7	-1.8	10.7	0.6	-3.1	3.8	-1.9	0.4
CCOC(=O)CNC(=O)/C=C/c1ccc2c(c1)OCO2	4.5%	3.6	2.6	0.2	-10.2	-3.5	-6.2	-24.1	0.0	0.0
Cc1cc2c(cc1C)NC(c1cccnc1)C1=C(CC(C)(C)CC1=O)N2 (stereo unspecified)	-0.3%	x	x	x	3.3	x	-3.8	-4.7	0.5	-0.3
Cc1ccc(S(=O)(=O)Cc2ccc(C(=O)N3CCCCC3C)cc2)cc1 (stereo unspecified)	5.7%	8.4	0.5	1.7	-2.0	-3.9	0.1	1.0	2.4	0.5
Cc1ccc(/C=C2\C(=O)NC(=O)N2C)o1	x	15.1	6.8	0.7	-10.9	-3.2	3.7	-1.0	-0.6	-0.3
CN(c1ccccc1)S(=O)(=O)c1ccc(NC(=O)c2ccc(-c3ccccc3)cc2)cc1	-3.4%	1.4	32.4	4.5	46.7	-8.3	30.5	-9.3	8.6	-0.9
Cc1ccc2oc(C(=O)N3CCC(C(N)=O)(N4CCCCC4)CC3)c(C)c2c1	x	1.3	4.3	-1.2	5.0	-2.4	-1.0	-2.7	0.0	-0.8
CN(C)CCN(CC1CCCN(Cc2ccccc2F)C1)C(=O)c1ccc(Cl)cc1 (stereo unspecified)	x	15.2	10.3	3.3	28.2	-2.0	0.7	-8.6	0.1	0.7
Cc1ccc(CNS(=O)(=O)c2c(C)[nH]c(C)c2C(=O)N2CCCC2)cc1	x	3.1	-3.5	17.7	-5.4	0.5	-9.4	-13.6	-3.0	1.8
Fc1ccc(N2CCN(C(=S)NCC3CCCO3)CC2)cc1 (stereo unspecified)	-0.7%	-13.9	-33.4	-6.3	4.8	0.8	-6.8	12.1	-2.1	0.3
Cc1ccccc1Nc1nc2ccccc2s1	-4.9%	x	x	x	29.4	x	0.9	-13.9	-0.5	-5.0
O=C(CCCn1nnc(-c2cccnc2)n1)c1ccc(F)cc1	0.2%	-4.2	1.7	-1.4	-22.7	-13.3	1.1	2.6	-1.4	0.0
O=C(c1cccc(Cl)c1)N1CCCC(c2ccc(Cl)cc2)=N1	5.2%	-25.4	-12.6	13.6	38.2	6.5	-9.9	-19.6	-1.4	1.3
CCOc1ccc(N2C(=O)CC(N3CCN(c4ccc(C(=O)c5ccncc5)cc4)CC3)C2=O)cc1 (stereo unspecified)	6.7%	x	x	x	-6.2	x	-0.2	-0.5	0.2	-0.2
O=C(CSc1nc(NS(=O)(=O)c2ccccc2)cc(=O)[nH]1)Nc1ccccc1C(F)(F)F	x	6.9	5.8	-2.8	-7.3	-3.1	-3.2	22.2	-0.2	0.0
CN(C)CC(C)(C)CNS(=O)(=O)c1ccc(OC(F)(F)F)cc1	-12.2%	17.1	8.3	0.8	15.5	-2.4	-0.3	-2.8	-1.2	-0.3
COc1cccc(/C=C(\C(=O)O)c2ccccc2)c1	x	-3.7	-10.5	-3.2	-24.5	-3.0	-2.2	62.5	-1.4	-0.4
Cc1ccc(S(=O)(=O)N(Cc2ccc(F)cc2)Cc2ccco2)cc1	1.9%	x	x	x	31.1	x	10.3	-6.9	u	-1.6
COc1ccc(C(=O)O/N=C(/c2ccccc2)c2ccncc2)cc1OC	x	1.6	7.5	-1.1	-12.2	0.2	3.0	9.4	-0.9	0.4
O=C1CCC/C=C\C[C@H](CC(=O)N(CCO)Cc2ccccc2)C(=O)N2CCC[C@@H]2CO1	x	4.2	9.7	-0.7	x	-2.4	-5.4	x	x	-0.3
Cc1ccccc1C(=O)O/N=C(\N)c1cccc([N+](=O)[O-])c1	9.0%	x	x	x	15.5	x	-2.4	18.3	1.0	-0.2
CCCSc1nnc(NC(=O)CSc2nc3[nH]c(=O)cc(O)c3s2)s1	-2.1%	3.2	-13.3	3.7	x	-9.3	-3.0	x	x	0.2
Cc1cc(=O)n2[nH]nnc2n1	-14.9%	11.1	7.6	-2.7	-5.9	3.2	0.1	-6.1	2.3	0.1
Cc1ccc(S(=O)(=O)N(C)C)cc1NC(=O)COC(=O)c1c(-c2ccccc2)noc1C	7.2%	-0.7	-0.9	-1.3	-19.0	-17.5	-7.1	3.7	-0.7	-0.4
CCC(=O)c1c[nH]c(C(=O)NCc2cccnc2)c1	-1.2%	18.3	19.9	-0.1	-5.0	-1.2	9.1	-3.4	-3.2	0.4
CCCCn1nc2cc(C(=O)NCC34CC5CC(CC(C5)C3)C4)ccc2c1OC	-4.1%	-18.0	-27.9	-7.7	23.8	6.3	-5.3	-3.0	1.1	0.1
O=C(O)CC1Sc2ccccc2NC1=O (stereo unspecified)	4.5%	x	x	x	-1.0	x	x	-3.4	-1.1	0.1
CC(=O)Nc1ccc(S(=O)(=O)NC(CC(=O)O)c2ccc(C)cc2)cc1 (stereo unspecified)	4.7%	8.4	7.7	-1.2	2.2	0.3	2.1	-1.6	-3.2	-0.3
CCOC(=O)Cc1csc(NC(=O)c2cc3ccccc3o2)n1	x	-19.2*	4.6*	-1.7*	-0.8	-4.8	-11.4	-10.2	-2.9	-5.5
COC(=O)C(C)n1cnc2c(nnn2-c2cccc(Cl)c2)c1=O (stereo unspecified)	2.3%	-1.7	-10.8	-6.0	-6.2	-11.1	-2.9	-3.3	6.8	-0.2
CC(C)(CO)CNC(=O)CCc1nnc(CCCc2ccccc2)o1	8.8%	3.2	9.0	3.5	-9.4	-1.4	-3.2	33.4	u	0.4
Cc1ccc(CC2S/C(=N/N=C/c3ccco3)NC2=O)cc1 (stereo unspecified)	4.4%	1.7	-15.4	-1.9	-14.9	0.5	-17.3	0.9	-3.8	0.1
CC(C)N(C(=O)Cn1c(SCC(=O)Nc2nccs2)nc2ccccc21)C(C)C	8.8%	x	x	x	-5.3	x	-4.4	4.0	7.0	0.9
Cc1cc(Br)c(NC(=O)COC(=O)C2CC2C)c(Br)c1 (stereo unspecified)	-2.7%	x	x	x	-4.6	x	0.3	-2.8	6.7	0.4
Cc1cc(C)c2c(CC(=O)NC3CCS(=O)(=O)C3)coc2c1 (stereo unspecified)	4.3%	2.0	-1.2	-1.0	-4.9	-4.5	-5.0	-15.3	-0.5	0.5
Fc1ccc(NC(=S)N/N=C/c2cccc(Br)c2)c(F)c1	-2.5%	-5.9	2.8	5.5	20.5	x	3.0	32.4	6.9	0.5
